# RN4220 kill – kills Staphylococcus aureus RN4220; S. aureus RN4220 growth, OD600, 16 h; inhibition, % (test concentration not listed); hit rate 0.33% among 330,000; AID 1259311;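 active = z-score of -3 or lower and OD600 up to 0.18 on both plates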;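 also: plate controls were untreated cells for no effect and reference antibiotic for full effect; stock transfer was 100 nL into about 80 µL; one replicate is shown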
# Mtb hypoxia inh – Mtb hypoxia fluorescent reporter inhibition; M. tuberculosis hypoxia-regulated fluorescent reporter, fluorescence; fluorescence inhibition, % (test concentration not listed); hit rate 0.1% among 300,000; AID 1159583;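 active = 35 to 45% if threefold the growth effect, above 45% if 1.5-fold the growth effect; inactive = the rest, general growth blockers included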;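 also: wells of about 50 µL received 100 nL stock; 0% = vehicle wells and 100% = reference inhibitor wells; whole bacteria with a GFP reporter of the hypoxia response; strong numbers were not always called active; many hits fall short of the cut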
# BJeLR viability – BJeLR cell viability loss; BJeLR (HRASV12) viability, CellTiter-Glo ATP luminescence, 48 h; reference of the scale not given here; inhibition, % (no concentration beside the values); hit rate 0.17% among 300,000;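 active = replicate mean above 50%; inconclusive = above 50% but judged a plate artefact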;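 also: 50 nL library stock added to about 25 µL; numbers are from one replicate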
# Sa ugtP lethal – kills S. aureus RN4220 lacking UgtP | S. aureus RN4220 ugtP deletion, OD600 growth, 16 h; some inactives read as strong as hits | growth inhibition, % (no concentration beside the values) | hit rate 0.54% among 330,000 | AID 1259309;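 active = z-score under -3 and OD600 up to 0.15 on both plates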;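 also: plate controls were untreated wells for no effect and antibiotic for full effect; wells of about 80 µL received 100 nL stock; the first replicate is given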
# PrP UTR inh – suppresses PrP 5' UTR mRNA reporter expression; cell-based PrP 5' UTR mRNA reporter, plate reader; inhibition, % (concentration not given with the values); hit rate 0.35% among 340,000; AID 488862;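 active = every replicate at 50% or more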;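 also: 0 = median of the neutral control wells; tested in H4 reporter cells; numbers are from one replicate; inactives centre near -14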
# Autofluor counter – counter-screen for toxin protease inhibitors: compound fluorescence; compound autofluorescence counterscreen, microsphere flow cytometry; hits give high values; fluorescence intensity (no concentration beside the values); hit rate 3.1% among 360,000; AID 624483;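 active = at least 3 SD above the mean of all compounds, about 16000 in these data; inconclusive = too few beads counted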;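 also: 100 nL of 1 mM stock went into each well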
# Mtb hypoxia inh growth – also measured in Mtb hypoxia inh; calls as there; growth inhibition, %; measured here: M. tuberculosis growth (absorbance);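 0% = vehicle and 100% = reference antibiotic; read after six days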
# * = called active by the depositor; ? = inconclusive; · = no result given.
[1] O=C(C/C=N/OCc1ccc(Cl)cc1)c1cnc(-c2ccccc2)s1
[2] CC(C)(C)OC(=O)N1CCC(C(=O)N[C@@H](Cc2ccccc2)C(=O)O)(c2ccccc2)CC1
[3] Cn1nc(C(C)(C)C)c([N+](=O)[O-])c1C(=O)Nc1ccc(Br)cc1
[4] CCc1nc2ccccc2n1CC(O)COc1ccc(NC(C)=O)cc1 (stereo not given)
[5] Cc1ccc(N(C(=O)CNC(=O)c2ccco2)C(C(=O)NC2CCCC2)c2cccnc2)cc1C (stereo not given)
[6] O=C(O)c1ccc(Oc2cccc([N+](=O)[O-])c2)cc1C(=O)O
[7] CC(/C=C/c1ccco1)=N/NC(=O)CNc1ccccc1C
[8] S=P(NCCNP(=S)(N1CC1)N1CC1)(N1CC1)N1CC1
[9] CN1CCN(C(=O)CSc2cc(=O)n(C)c3ccccc23)CC1
[10] COC(=O)C1=CN(CC2CCCO2)C=C(C(=O)OC)C1c1cc(OC)c(OC)c(OC)c1 (stereo not given)
entry no.	1	2	3	4	5	6	7	8	9	10
RN4220 kill	·	8.8	4.2	-0.2	3.1	1.7	·	1.7	1.7	2.3
Mtb hypoxia inh	·	3	5	·	11	0	·	-1	10	15
Mtb hypoxia inh growth	·	5	14	·	-1	1	·	7	0	6
BJeLR viability	3	-17	-3	4	5	8	-3	·	-1	0
Sa ugtP lethal	·	-2	-9	2	9	3	·	-2	11	3
PrP UTR inh	-3	-21	-24	-14	-6	-21	2	8	-20	-26
Autofluor counter	4608	9092	3500	4530	2958	3904	2010	2838	2554	?

# The final 4 records of the section before lead into the next:
[7] CC(/C=C/c1ccco1)=N/NC(=O)CNc1ccccc1C
[8] S=P(NCCNP(=S)(N1CC1)N1CC1)(N1CC1)N1CC1
[9] CN1CCN(C(=O)CSc2cc(=O)n(C)c3ccccc23)CC1
[10] COC(=O)C1=CN(CC2CCCO2)C=C(C(=O)OC)C1c1cc(OC)c(OC)c(OC)c1 (stereo not given)
[11] CC(CN1CCOCC1)OC(=O)c1cccc(Br)c1 (stereo not given)
[12] CCCOc1ccc(-c2c(=O)n(OCc3ccc([N+](=O)[O-])cc3)c3ccccc3[n+]2[O-])cc1
[13] Cc1cc(C(=O)CSc2nc3ccccc3[nH]2)c(C)n1CC1CCCO1 (stereo not given)
[14] OCC1OC(Oc2c[nH]c3ccccc23)C(O)C(O)C1O (stereo not given)
[15] O=S(=O)(NCCC1=CCCCC1)c1cccc(Br)c1
[16] CC(=NNC(=O)c1ccc(NN=C(C)c2ccc(O)cc2)cc1)c1ccc(O)cc1
[17] CCCCc1cc2c(c(NC(=O)CC)n1)c(=O)oc1ccccc12
[18] O=C(Nc1ccn(Cc2ccc(Cl)cc2)n1)c1ccccc1
[19] O=Cc1cccn1-c1sc2c(c1C(=O)O)CCCC2
[20] CC(=NNC(=S)NCc1ccccc1)c1ccc(Cl)cc1
entry no.	7	8	9	10	11	12	13	14	15	16	17	18	19	20
RN4220 kill	·	1.7	1.7	2.3	-2.1	3.9	6.5	7.2	3.5	0.4	6.0	3.5	9.4	15
Mtb hypoxia inh	·	-1	10	15	·	2	4	0	6	8	3	5	-13	1
Mtb hypoxia inh growth	·	7	0	6	·	2	9	15	1	-4	8	22	-14	7
BJeLR viability	-3	·	-1	0	-9	-6	10	4	-3	·	-1	5	-5	·
Sa ugtP lethal	·	-2	11	3	7	0	1	-2	-13	15	-5	-1	-5	-11
PrP UTR inh	2	8	-20	-26	-1	-84	9	68*	-4	·	-13	-89	-5	·
Autofluor counter	2010	2838	2554	?	4322	1885	17964*	5891	·	·	11391	3690	2090	·

[21] COc1ccc(C=NNC(=O)c2ccc(N3CCCC3=O)cc2)cc1
[22] CC(C)(C)c1nnc(NC(=O)c2cccs2)s1
[23] Cc1cccc(CC2CC(=O)N(c3ccccc3)C2=O)c1 (stereo not given)
[24] O=C(CCNc1cccc(F)c1)c1cc2ccccc2o1
[25] CN(C)S(=O)(=O)N1CCC(c2ccc(F)cc2)C(COc2ccc3c(c2)OCO3)C1 (stereo not given)
[26] O=C(CSC(=S)N1CCCC1)N1CCN(S(=O)(=O)c2cccc(F)c2)CC1
[27] Cc1cccc(C)c1NC(=O)CN(C)C(=O)c1ccccc1SCC(=O)N1CCCC1
[28] O=C(c1ccccc1F)c1cn(CC(=O)N2CCCCC2)c2ccccc12
[29] COc1ccc(C(=O)NNC(=O)CSc2nnnn2C)cc1
[30] COc1cccc(-c2cc(=O)c3cc(NC(=O)c4ccccc4)ccc3[nH]2)c1
entry no.	21	22	23	24	25	26	27	28	29	30
RN4220 kill	3.1	4.8	2.6	13	-1.8	0.3	1.7	1.7	-1.8	5.3
Mtb hypoxia inh	4	6	·	-14	·	-9	1	3	2	7
Mtb hypoxia inh growth	-3	1	·	-3	·	8	2	4	2	3
BJeLR viability	·	8	1	-3	·	0	-8	2	0	18
Sa ugtP lethal	0	12	4	1	21	-1	-1	-1	2	0
PrP UTR inh	·	-69	-20	-22	-23	-1	-55	-30	-24	-42
Autofluor counter	·	4578	2699	3368	4445	5434	6070	24432*	3269	3084

[31] COc1ccc(C2C=C(c3ccc(F)cc3)NC(=S)N2)cc1OC (stereo not given)
[32] COC(=O)NCC(C)OC(=O)Nc1cccc(Cl)c1 (stereo not given)
[33] O=C1C(=O)N(CCN2CCCCC2)c2ccccc21
[34] O=C(CSc1nccc(=O)[nH]1)NC1CCCCCCC1
[35] COC(=O)c1ccc(CSc2nc3c(cnn3-c3ccc(Cl)cc3)c(=O)[nH]2)o1
[36] Cc1ccc(S(=O)(=O)c2nc(-c3ccccc3)oc2NCCCN2CCOCC2)cc1
[37] Cc1c(Nc2nc3ccccc3nc2NS(=O)(=O)c2cccc(Cl)c2)c(=O)n(-c2ccccc2)n1C
[38] Cc1ccc(S(=O)(=O)N2C(c3cccs3)CC=C(C(=O)O)C2c2ccccc2)cc1 (stereo not given)
[39] COC(=O)C1CC2CCC(O)CC2N1Cc1ccc(C)s1 (stereo not given)
[40] COc1ccc(-c2cccc(-c3cc(=O)oc4cc5c(cc34)OCO5)c2)cc1
entry no.	31	32	33	34	35	36	37	38	39	40
RN4220 kill	1.0	1.9	-8.9	5.7	7.4	2.2	4.3	17	6.8	6.5
Mtb hypoxia inh	9	·	·	10	10	14	0	9	2	0
Mtb hypoxia inh growth	-1	·	·	10	8	11	-1	5	3	-5
BJeLR viability	5	0	-4	·	·	1	-6	·	·	·
Sa ugtP lethal	-4	1	5	6	-16	11	-9	-7	1	-10
PrP UTR inh	-10	-18	-14	-9	-32	-10	-2	·	·	-7
Autofluor counter	2629	2677	2368	8116	7875	2008	2052	·	·	3663

[41] COc1ccc(C(=O)COC(=O)c2ccc3ccccc3n2)cc1
[42] CCN(CCCNC(=O)C1CCC(=O)N1Cc1ccccc1Cl)c1cccc(C)c1 (stereo not given)
[43] CN(Cc1cnccn1)C(=O)CC1C(=O)NCCN1Cc1cccc(Oc2ccccc2)c1 (stereo not given)
[44] CNC(=S)NN=Cc1ccc(OCC(=O)Nc2c(C)cc(C)cc2C)c(OC)c1
[45] CCCCNC(=S)NC(=O)c1ccccc1Br
[46] COc1ccc(C=NNC(=S)Nc2cc(S(=O)(=O)N3CCOCC3)ccc2N2CCOCC2)cc1O
[47] Cn1nnnc1SCC(=O)Nc1ncc(C(F)(F)F)cc1Cl
[48] CC1CN(C(=O)c2cc3cc(Cl)cc(Cl)c3oc2=O)CC(C)O1 (stereo not given)
[49] C=CCn1c(=O)c2ccccc2n2c(SC(C)C(N)=O)nnc12 (stereo not given)
[50] CC1CC(C)CN(CCCNC(=O)Cn2cccc2C(=O)c2ccccc2)C1 (stereo not given)
entry no.	41	42	43	44	45	46	47	48	49	50
RN4220 kill	11	5.0	4.5	9.6	1.2	5.1	-0.4	-1.5	3.8	-0.8
Mtb hypoxia inh	5	-1	-2	8	2	1	10	4	4	-2
Mtb hypoxia inh growth	17	6	16	3	9	-2	7	12	6	5
BJeLR viability	-1	-5	-1	·	1	·	·	-4	6	2
Sa ugtP lethal	8	-1	5	1	11	1	4	-1	11	-4
PrP UTR inh	-23	-10	·	·	-17	·	-23	-2	·	-14
Autofluor counter	2454	30276*	4861	·	2434	·	3835	4492	3436	·

[51] COc1ccc(S(=O)(=O)N2CCCCCC2)cc1C(=O)N(C)Cc1ccc(OC)c(OC)c1OC
[52] O=C(NN=Cc1cccs1)c1cnccn1
[53] O=C(/C=C/c1ccco1)Nc1cccc(C(=O)Nc2ccccc2C(=O)O)c1
[54] O=C(Nc1ccc2oc(-c3ccncc3)nc2c1)c1ccc(F)cc1
[55] COc1cc2c(cc1OC)C(c1ccc([N+](=O)[O-])cc1)NC(=O)C2 (stereo not given)
[56] Cc1ccccc1C(=O)Nc1ccc(N2CCCCCC2)cc1
[57] O=C(CN1CCN(c2ccccc2O)CC1)NCCCc1ccccc1
[58] O=C(Nc1ccc(-c2nnn(CC(=O)N3CCN(C(=O)c4ccco4)CC3)n2)cc1)c1ccccc1F
[59] CCc1cccc(NC(=O)C2CCN(S(=O)(=O)c3cccs3)CC2)c1
[60] COc1cc2c(cc1OC)C(C)N(S(=O)(=O)c1ccc(C)cc1)CC2 (stereo not given)
entry no.	51	52	53	54	55	56	57	58	59	60
RN4220 kill	3.1	5.6	-3.3	-1.2	-1.2	-2.4	4.7	3.3	-0.8	7.6
Mtb hypoxia inh	5	-5	3	4	-3	-4	5	2	0	4
Mtb hypoxia inh growth	5	0	4	-2	9	-5	1	-1	9	-3
BJeLR viability	1	·	9	2	-13	6	-8	12	-1	1
Sa ugtP lethal	2	2	9	2	0	-1	7	5	-6	9
PrP UTR inh	-11	·	-7	16	-3	-67	2	·	-8	-12
Autofluor counter	·	·	2308	4840	4161	4420	3272	·	11060	3602

[61] CC(C)(C)CC(=O)NC(=S)NCc1ccccc1
[62] O=C(NCCc1csc(-c2ccccc2)n1)c1c(F)cccc1F
[63] COc1ccc(N2C(=O)CCC2=O)cc1
[64] CC(NC(=O)CCl)c1ccc(Cl)c(Cl)c1 (stereo not given)
[65] O=C(CSc1nc2ccccc2c(=O)[nH]1)N1CCCCC1
[66] O=C(Cc1ccc(Cl)c(Cl)c1)Nc1ccc(S(=O)(=O)Nc2ncccn2)cc1
[67] N=C1SCC(=O)N1c1ncc(Cc2ccccc2Cl)s1
[68] CC(=O)NC12CC3CC(C1)CC(C(=O)N1CCN(S(=O)(=O)c4ccccc4C#N)CC1)(C3)C2
[69] COC(=O)c1ccc(Cn2cc(Cl)cn2)o1
[70] CC(C)(C)c1ccc(-c2nnc3sc(-c4ccccn4)nn23)cc1
entry no.	61	62	63	64	65	66	67	68	69	70
RN4220 kill	-0.2	-6.8	0.8	·	2.3	6.7	93*	6.6	3.5	-3.5
Mtb hypoxia inh	21	5	6	·	3	9	17	-11	14	·
Mtb hypoxia inh growth	16	10	6	·	3	1	4	-9	2	·
BJeLR viability	-27	0	1	8	-6	-9	6	·	-4	-7
Sa ugtP lethal	14	-4	-2	·	0	4	89	14	10	0
PrP UTR inh	-8	-9	4	-7	-17	-19	-35	-17	-31	26
Autofluor counter	4310	6339	20610*	2979	4426	3962	4382	6283	6030	6135

# The list goes on (two carried over from the part before).
[69] COC(=O)c1ccc(Cn2cc(Cl)cn2)o1
[70] CC(C)(C)c1ccc(-c2nnc3sc(-c4ccccn4)nn23)cc1
[71] Cc1ccc(OCc2nc3ccccc3n2C)cc1
[72] Cn1c(=S)[nH]c2[nH]c(=O)cnc2c1=O
[73] CCCCCCCC(=O)NN=Cc1ccco1
[74] O=C(COc1ccc(Br)cc1)N(CCO)CCO
[75] Cc1ccc(S(=O)(=O)N2CCOCC2)cc1C(=O)N1C(=O)c2cccc(N)c2C1=O
[76] CC(=O)Nc1ccc(NC(=O)CSC2=NS(=O)(=O)c3cc(Cl)ccc3N2)cc1
[77] Cc1cc(NC(=O)c2ccc(-c3ccccc3[N+](=O)[O-])o2)no1
entry no.	69	70	71	72	73	74	75	76	77
RN4220 kill	3.5	-3.5	-2.3	2.3	-8.5	-0.2	1.7	0.4	7.2
Mtb hypoxia inh	14	·	18	5	0	5	-4	7	4
Mtb hypoxia inh growth	2	·	14	-4	3	-2	4	-1	1
BJeLR viability	-4	-7	-12	-9	·	7	-8	-8	·
Sa ugtP lethal	10	0	5	4	-3	3	-2	20	-5
PrP UTR inh	-31	26	-94	-10	·	-11	2	-19	-33
Autofluor counter	6030	6135	3928	2432	·	4609	9481	6282	6018

# Assay outcomes as filed in PubChem.
